Screens (PubChem BioAssay)
Sa growth inh: inhibitors of Staphylococcus aureus growth at 42 °C. S. aureus RN4220 growth, OD600, 20 h; hits give low values. relative growth, % (concentration not given with the values). hit rate 0.53% among 170,000. AID 720641;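 active = growth at 42 °C up to 50% and 20 or more points under that at 30 °C, or under 10% at both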;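 also: 300 nL library stock went into each well; scaled to the means of positive and negative controls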
HCMV NEC inh: cytomegalovirus nuclear egress complex inhibition | HTRF UL50-UL53 interaction, normalized percent inhibition | inhibition, % (concentration not given with the values) | hit rate 0.15% among 190,000 | AID 1918969;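 active = both replicates at 50% or more, plus weaker picks with an unusually low signal ratio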;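 also: stock transfer was 100 nL into about 20 µL; 0% = negative control wells and 100% = wells with untagged competitor protein; inactives centre near -12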
GIV-Gai inh: inhibitors of GIV GBA-motif binding to rat Galpha-i3; P08753; Galpha-i3/FITC-GIV peptide fluorescence polarization, 90 min; hits give low values; scaled: aluminum fluoride 0%, vehicle 100%; percent of control (FP), % (test concentration not listed); hit rate 0.42% among 210,000;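 active = replicate mean at 85% of control or lower, very high polarization wells dropped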;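 also: wells of about 15 µL received 100 nL stock; the first replicate is given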
Target sequence (P08753 whole entry, looked up): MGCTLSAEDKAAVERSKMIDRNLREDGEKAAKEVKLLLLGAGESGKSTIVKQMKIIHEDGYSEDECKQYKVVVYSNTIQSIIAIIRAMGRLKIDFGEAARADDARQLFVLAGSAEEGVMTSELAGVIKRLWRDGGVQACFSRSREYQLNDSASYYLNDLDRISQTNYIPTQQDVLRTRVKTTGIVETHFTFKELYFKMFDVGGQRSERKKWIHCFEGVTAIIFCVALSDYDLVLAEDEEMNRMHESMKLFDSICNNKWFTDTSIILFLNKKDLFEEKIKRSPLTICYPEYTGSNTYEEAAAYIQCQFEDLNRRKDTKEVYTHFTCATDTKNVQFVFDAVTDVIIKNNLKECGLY
Sa growth inh second temp: further read-out of Sa growth inh, marked with its call; relative growth, %; measured here: growth at 30 °C;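 optical density after 20 h as mean of two plates; 100% = untreated growth and lower means inhibition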
* = called active by the depositor; . = no result given; & = joins results of further samples.

The first 2 entries (preview)
SMILES	Sa growth inh	Sa growth inh second temp	HCMV NEC inh	GIV-Gai inh
COc1ccccc1NC(=O)/C(C#N)=C/c1cn(C)c2ccccc12	92.0	87.4	-29.4	103.1
CCCN(CCC)CCCNC(=O)c1cnn(-c2ccc(F)cc2)c1-n1cccc1	100.5	98.8	.	103.9

The list itself (from the top)
SMILES	Sa growth inh	Sa growth inh second temp	HCMV NEC inh	GIV-Gai inh
COc1ccccc1NC(=O)/C(C#N)=C/c1cn(C)c2ccccc12	92.0	87.4	-29.4	103.1
CCCN(CCC)CCCNC(=O)c1cnn(-c2ccc(F)cc2)c1-n1cccc1	100.5	98.8	.	103.9
COc1ccc(C2C=C(c3ccccc3)Nc3nc(NC(=O)Cc4ccccc4)nn32)cc1 (stereo unspecified)	92.0	82.8	-9.1	120.0
CCOC(=O)c1[nH]c(C)c(CCC(=O)NCc2ccc(N(C)C)cc2)c1C	99.9	95.2	.	105.2
COc1cccc(NC(=O)C2CCN(S(=O)(=O)c3ccc4[nH]c5c(c4c3)CCCCC5)CC2)c1	127.5	92.7	-19.9	105.7&108.3
Fc1cccc(F)c1C=Nc1ccc(-c2nc3ccccc3[nH]2)cc1	114.1	95.5	-9.0	.
CCC1Cn2c(C(=O)NCCc3c(C)nn(CC)c3C)cc3c(Cl)ccc(c32)O1 (stereo unspecified)	.	.	-12.5	100.7
O=C(C1CCN(S(=O)(=O)Cc2ccccc2)CC1)N1CCN(c2ccc(F)cc2)CC1	115.0	87.2	-20.0	99.6
Cc1cc(C)cc(Nc2nc3ccccc3n3cnnc23)c1	100.5	93.1	11.6	107.4
COc1nsc(NN)c1C#N	93.0	62.3	-14.8	.
CC(C)CCN1C(=O)c2cc3sccc3n2CC1(C)C(=O)NC1CCCCC1C (stereo unspecified)	.	.	-1.1	99.3
O=S(=O)(c1ccccc1)N1CCN(c2ccccc2)CC1	69.6	32.0	-64.9	.

Sorted by molecular weight (lowest first): 6 of the compounds above.
SMILES	Sa growth inh	Sa growth inh second temp	HCMV NEC inh	GIV-Gai inh
COc1ccccc1NC(=O)/C(C#N)=C/c1cn(C)c2ccccc12	92.0	87.4	-29.4	103.1
Fc1cccc(F)c1C=Nc1ccc(-c2nc3ccccc3[nH]2)cc1	114.1	95.5	-9.0	.
CCOC(=O)c1[nH]c(C)c(CCC(=O)NCc2ccc(N(C)C)cc2)c1C	99.9	95.2	.	105.2
CCCN(CCC)CCCNC(=O)c1cnn(-c2ccc(F)cc2)c1-n1cccc1	100.5	98.8	.	103.9
CCC1Cn2c(C(=O)NCCc3c(C)nn(CC)c3C)cc3c(Cl)ccc(c32)O1 (stereo unspecified)	.	.	-12.5	100.7
COc1cccc(NC(=O)C2CCN(S(=O)(=O)c3ccc4[nH]c5c(c4c3)CCCCC5)CC2)c1	127.5	92.7	-19.9	105.7&108.3

Additional compounds:
SMILES	Sa growth inh	Sa growth inh second temp	HCMV NEC inh	GIV-Gai inh
CC(C)Cc1nnc(NC(=O)c2cc(-c3ccc4c(c3)CC(C)O4)on2)s1 (stereo unspecified)	.	.	-16.7	99.3
Cc1ccc2c(c1)N(CCC(=O)NC1CCC(C)CC1)C(=O)CO2 (stereo unspecified)	115.3	82.3	.	104.4
O=C(CN1CCc2ccccc21)NN1CC(=O)N(c2ccccc2)CC1=O	95.5	90.4	-21.5	99.2
COc1cc(/C=C\C(=O)Nn2c(-c3cccc(Cl)c3)nc3ccccc3c2=O)cc(OC)c1OC	.	.	-12.0	105.6
CN(C)C(=O)c1ccc2c(c1)N(CC(=O)NCCCN1CCCCC1)C(=O)C1CCCCN21 (stereo unspecified)	.	.	5.9	98.7
CN(C(=O)CSc1nc2ccccc2c(=O)n1C)c1ccccc1	94.4	110.5	17.4	103.1
O=C(Nc1cc(Cl)ccc1O)c1cc(-c2ccc(F)cc2)on1	.	.	-18.7	99.5
COc1ccc(NC(=O)CCCn2c(=O)c3cccn3c3ccccc32)c(OC)c1	102.4	76.5	-25.2	100.2
CCOC(=O)c1ccccc1NC(=O)Cn1cc(C(=O)c2ccc(F)cc2)c(=O)c2ccc(C)nc21	.	.	1.7	110.7
Cc1cc(/C=C(\C#N)C(=O)OCN2C(=O)c3ccccc3C2=O)c(C)n1CC(C)C	104.6	92.6	-20.8	.
N#CC(C#N)CC(=O)c1ccc(Cl)cc1	119.1	36.5	-3.7	98.6
Cc1cc(-c2ccc(C)c(S(=O)(=O)CCC(=O)N3CC=C(c4ccccc4)CC3)c2)on1	.	.	-21.7	109.4
Cc1ccc(NCCC(=O)O)cc1	109.4	93.1	-21.7	.
O=C(Nc1cccc(Cl)c1)N1CCN(CCc2ccccc2)CC1	103.5	90.0	-13.9	106.1
COc1ccc2nc3c(nc2c1)-c1cccc2cccc-3c12	75.8	90.1	-3.2	.
CC1Cn2cc(C(=O)N3CCCc4ccccc43)c(=O)c3c(Cl)ccc(c32)O1 (stereo unspecified)	88.3	87.4	0.2	107.4
N=C1C(c2nc3ccccc3s2)=C(O)CN1/N=C1\C(=O)Nc2ccccc21	107.8	98.2	-29.2	.
O=c1c2ccccc2n(Cc2ccc(Cl)cc2)c(=O)n1Cc1ccc(Cl)cc1	106.1	92.8	-33.4	104.5
COc1ccccc1-c1cc(C(=O)NCc2ccccc2)c2c(-c3ccc(C)cc3)[nH]nc2n1	70.5	106.4	.	102.8
Cc1cc(C(=O)N2CCCC2C(=O)O)c(C)o1 (stereo unspecified)	81.7	99.7	4.9	.
COc1ccc2nc(NC(=O)CSc3nc4ccc(C)cc4[nH]3)sc2c1	.	.	-4.8	99.6
CC(NC(=O)CN(C)Cc1cccc(F)c1)c1ccccc1 (stereo unspecified)	80.8	92.4	-18.2	.
c1ccc2c(c1)CCN2c1nn2nnnc2c2ccccc12	114.5	78.0	-6.9	103.6
COc1ccc(NC(=O)Cn2c(SCc3ccc(C)cc3)nc3cccnc32)cc1OC	127.2	77.0	.	105.9
O=C(NC1CCCCCCC1)c1ccc(N2CCCC2=O)cc1	92.0	89.0	2.1	103.4
Cc1ccc2nc(NCCc3ccccc3)c3nnnn3c2c1	.	.	9.7	101.4
Cc1ccccc1Cn1cc(S(=O)(=O)c2ccc(F)cc2)c(=O)c2cc3c(cc21)OCO3	100.3	93.7	-11.0	100.9
Cc1ccn2c(=O)cc(COc3ccc(NC(=O)COc4ccc(Cl)cc4)cc3)nc2c1	70.8	88.0	.	94.6
CNC(=O)c1ccc2nc(N3CCC(C)CC3)sc2c1	92.6	76.0	2.2	100.4
COc1ccc(-c2noc(-c3cccnc3NC3CCCC3)n2)cc1	.	.	-13.7	97.6
CC(C)C(=O)Nc1ccccc1-c1nc2ccccc2[nH]c1=O	106.5	92.2	-74.1	102.1
CCCCNC(=O)c1ccc2c(c1)N=C(CC)c1ccccc1S2	122.3	88.8	-8.5	102.7
CCC(Sc1nc2ncccc2[nH]1)C(=O)Nc1ccc(Cl)cc1 (stereo unspecified)	.	.	-5.0	102.1
COC(=O)c1cc2sccc2n1C(C)C(=O)Nc1cc(Cl)ccc1C (stereo unspecified)	108.4	88.1	.	109.8
COc1cccc(-c2nc3ccccc3c(=O)n2NC(=O)Cn2nc(C(F)(F)F)c(Br)c2C)c1	.	.	1.9	94.8
COc1ccc(C(=O)Nc2ccc(S(=O)(=O)N3CCCCC3C)cc2)c(OC)c1OC (stereo unspecified)	90.0	85.0	-13.1	.

2 entries picked at random from those above:
SMILES	Sa growth inh	Sa growth inh second temp	HCMV NEC inh	GIV-Gai inh
Fc1cccc(F)c1C=Nc1ccc(-c2nc3ccccc3[nH]2)cc1	114.1	95.5	-9.0	.
CCOC(=O)c1[nH]c(C)c(CCC(=O)NCc2ccc(N(C)C)cc2)c1C	99.9	95.2	.	105.2

(more compounds)
SMILES	Sa growth inh	Sa growth inh second temp	HCMV NEC inh	GIV-Gai inh
CC1C/C(=N\O)c2cc(Cl)ccc2S1(=O)=O (stereo unspecified)	107.5	93.8	-31.7	108.3
COc1ccc(-c2nc3n(n2)C(=O)CC(c2ccc(Cl)cc2)S3)cc1 (stereo unspecified)	88.2	84.7	-13.4	103.3
CC1=C(C#N)C(c2cccnc2)C2=C(N1)c1ccccc1C2=O (stereo unspecified)	70.4	39.2	-156.2	.
N#Cc1c(Cl)cccc1N1CCSCC1	94.7	82.0	-22.2	96.9
O=C(Nc1ccc(F)cc1F)c1ccc(COc2c(F)c(F)cc(F)c2F)o1	102.5	96.9	-7.7	109.9
C=CCn1c(SCC(N)=O)nnc1-c1ccc(OC)c(OC)c1	102.4	90.9	-1.8	108.2
O=C(Cc1csc(NC(=O)Nc2ccccc2)n1)NC1CCCCC1	.	.	-3.7	103.5
O=C(COc1ccccc1)Nc1cccc(-c2nnc(-c3ccco3)o2)c1	66.0	40.5	-23.6	104.2
Cc1cccc(N2CCN(C(=O)C3CCN(c4nc5ccccc5n5cccc45)CC3)CC2)c1C	.	.	-16.3	100.2
Cc1ccc(C)c(N2CCN(C(=O)C3CCN(c4nc(-c5ccccc5C)no4)CC3)CC2)c1	.	.	1.3	97.7
NC(=O)COC(=O)c1cc(-c2ccccc2)nc2ccccc12	114.1	87.1	-14.4	.
Cc1ccc(C(=O)OCC(=O)N2CCCC2)s1	98.0	75.5	-39.3	.
Cc1cccc(-n2ccc(=O)c(C(=O)Nc3cccnc3)n2)c1	.	.	-7.7	108.7
CCC1CCCCN1C(=O)c1cc(-c2ccc(F)cc2)on1 (stereo unspecified)	64.2	72.6	-10.6	100.2
COc1nc(N)nc(C2CC2)n1	102.1	97.8	-5.8	101.6
CCN(CC(=O)Nc1ccc2c(c1)OCCO2)Cc1cc(=O)oc2cc(C)c(C)cc12	81.9	72.7	-31.1	.
O=C(NC(=O)c1c(F)cccc1F)O/N=C1\CCCc2occc21	89.8	94.9	-14.2	106.3
CC1CCN(c2nn3c(=O)c(C(=O)NCc4ccc(Cl)cc4)cnc3s2)CC1	91.2	91.2	.	95.7
Cc1cc2nc3c(c(C(F)(F)F)n2n1)CCc1ccccc1-3	90.9	78.8	-46.6	105.6
FC(F)(F)COc1nc(OCC(F)(F)F)nc(OCC(F)(F)F)n1	110.8	99.3	-14.8	108.7
CCOC(=O)NC(=S)Nc1cccc(C)n1	94.7	79.9	-41.1	99.2
Cc1ccc(C)c(NC(=O)N2CCN3CCCCC3C2)c1 (stereo unspecified)	114.2	89.7	.	104.9
O=C(Nc1ccc([N+](=O)[O-])cc1)c1cc(-c2ccccc2)nc2ccccc12	.	.	-3.8	99.9
CCCc1ncc(C[n+]2ccccc2C)c(N)n1	93.0	93.6	-6.4&-8.4&3.4	.
CCc1ccc(Nc2ncnc3nc[nH]c23)cc1	92.8	63.7	-29.6	103.1
O=C(O)c1cccc(NC(=O)c2cc3c([nH]c2=O)CC(c2ccccc2)CC3=O)c1 (stereo unspecified)	.	.	-2.7	107.6
CCO/C=N/Nc1nc(C(F)(F)F)nc2c1cnn2-c1ccccc1	107.8	65.9	-13.3	.
COc1ccc(C2C(C#N)=C(N)N3CCc4cc(OC)c(OC)cc4C3=C2C#N)cc1 (stereo unspecified)	97.6	83.3	-55.2	127.9
CCCc1cc(=O)[nH]c(/N=C(/NC(=O)C(C)N2C(=O)c3ccccc3C2=O)Nc2ccccc2)n1 (stereo unspecified)	105.0	92.8	-9.7	101.4
O=c1oc2ccccc2cc1S(=O)(=O)c1ccc(F)cc1	95.0	86.5	.	100.0
CCOC(=O)c1sc2ccccc2c1S(=O)(=O)N1CC=C(c2ccccc2)CC1	.	.	-8.9	104.4
CCCCOCCCNCc1ccc2c(c1)n(C)c(=O)n2C	.	.	-15.8	99.2
COc1ccc(CCNC(=O)c2ccc(Cn3c(SCc4ccccc4)nc4cccnc43)cc2)cc1	96.9	88.8	-17.7	98.5
OCCNC(=S)NC1CC1	96.5	89.3	-10.3	102.0
CCC(C(=O)NCCOC)N1CCN(Cc2ccc(F)cc2)C(=O)C1=O (stereo unspecified)	.	.	-26.9	105.0
CC(C)c1ccc(CNc2nc(-c3ccco3)nn2S(=O)(=O)c2ccc(F)cc2)cc1	93.2	84.6	-6.3	102.1
CC1=NN(c2ccc(C(=O)O)cc2)C(=O)CC1	70.0	89.2	4.4	102.9
CCOC(=O)c1c(NC(=O)CSc2nnnn2C)sc(C(=O)N(C)C)c1C	94.3	85.1	-15.6	.
CCOC(=O)COc1cc2c3c(c(=O)oc2cc1C)CCCC3	108.2	82.3	2.9	103.4
COc1ccccc1NC(=O)c1cnc(Nc2ccc(C)c(Cl)c2)c2ccccc12	116.2	85.1	.	98.1
CC(C)(C)C1CCc2c(sc(NC(=O)c3ccccc3F)c2C(=O)N2CCCCC2)C1 (stereo unspecified)	106.8	85.6	-5.9	105.7
CCCN1CCN(CCCNC(=O)Cn2c(-c3cccs3)cc3cc(Cl)ccc32)CC1	104.9	91.6	.	102.2
C=CCNc1nc(-c2cc(C)n(C3CC3)c2C)cs1	88.2	43.9	-29.7	.
COc1ccc(-c2cc(C(F)(F)F)nc(NC3CCCC3)n2)cc1	76.7	66.1	-7.6	104.7
N#Cc1ccc(C(=O)OC2CCCC2)cc1	63.7	88.7	6.0	.
COc1ccccc1CNN	94.7	69.5	-13.2	104.1
COC(=O)CCS(=O)(=O)c1ccc(C)cc1	115.6	74.2	-1.9	98.1
CCC(C)(C)NS(=O)(=O)c1ccc2c(c1)CCN2C(=O)CCC(=O)N1CCOCC1	.	.	-22.5	94.1
O=C(O)CCC(=O)Nc1ccc(C(=O)OC2CCCCC2)cc1	88.1	75.2	-14.1	100.8
COc1cccc(C(=O)N(Cc2cccnc2)Cc2cc3ccccc3[nH]c2=O)c1	93.9	84.3	-13.2	92.7
